# Screening data as filed in PubChem BioAssay.
# ClpP mod = qHTS Assay for Activators of ClpP. ATP-dependent Clp protease proteolytic subunit (Bacillus subtilis (strain 168)), P80244. purified B. subtilis ClpP, FRET peptide cleavage, 20 min. Potency, µM (highest dose often 57.5 µM), without a hit: top-dose activity change, negative = active. 1.9% of 340,000 active; active = well fitted falling curve with a large enough effect; inconclusive = small, poorly fitted or top-dose-only effect; inactive = no such curve, though single readings can be large or run the other way; also: potency is read from the fitted curve at half-maximal effect; the source files actives as falling curves though it sought activators and does not explain the sign; nearly all actives have a fitted effect of over 65% in size; many hits overshoot -100%
# Target sequence (P80244 whole entry, looked up): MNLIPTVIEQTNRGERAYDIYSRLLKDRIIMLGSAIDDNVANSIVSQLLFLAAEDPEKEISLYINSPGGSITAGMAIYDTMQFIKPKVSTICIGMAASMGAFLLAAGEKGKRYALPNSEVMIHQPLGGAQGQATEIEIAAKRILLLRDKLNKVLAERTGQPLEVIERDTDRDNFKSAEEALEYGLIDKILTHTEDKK
#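 Buffer: 100 mM Tris/HCl pH8, 100 mM KCl, 0.05% low protease BSA, 2.5% glycerol, 0.01% Tween-20. ClpP 10 microg/mL final; 20 min RT; delta FRET normalized to ADEP and DMSO controls.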
# gsp antagonist = qHTS for Antagonists of gsp, the Etiologic Mutation Responsible for Fibrous Dysplasia/McCune-Albright Syndrome: qHTS. gsp-mutant cells, cAMP HTRF, 30 min; control for the full effect not named in the record. Potency, µM (highest dose often 76.9 µM), for the others: top-dose activity change, negative = inhibition, most hits filed as inhibitors. 0.4% of 340,000 active. AID 624288, 2012; active = falling curve of any shape with a large fitted effect; inconclusive = falling curve, mostly with a smaller effect; inactive = flat or rising curve; cell line not stated here;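 also: intracellular cAMP measured with PDE inhibitor Ro 20-1724 present during compound exposure; potency is read from the fitted curve at half-maximal effect; % is scaled to controls: 0 for no effect and ±100 for the full control effect; nearly all actives have a fitted effect of over 65% in size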
#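 Cells, 2000/well, grown 16–24 h in DMEM 10% FBS with 0.5 mg/ml G418, then compounds plus […] (300 uM addition stock), 30 min at 37C. cAMP read by HTRF (cAMP-d2 and anti-cAMP antibody-K in lysis buffer) after 30 min RT.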
# CtBP-E1A blk = qHTS Assay for Inhibitors of the CtBP/E1A Interaction; 0.49% of 340,000 active; AlphaScreen GST-E1A/His-CtBP binding, 1536-well; stronger effect = lower value; control for the full effect not named in the record; activity change, % (no concentration beside the values); CtBP / adenovirus E1A interaction (AlphaScreen); in the data active means activity change below about -65%; inconclusive means about -30% to -65%; inactive means above about -30%; also: % is scaled to controls: 0 for no effect and ±100 for the full control effect; compound concentration not given in the record
#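 GST-E1A and His-tagged CtBP (125 nM each as 5X stock) were preincubated with pin-transferred compound for 2 h at 37 °C in the dark, then glutathione donor and nickel acceptor beads were added for 1 h before AlphaScreen reading.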
# Menin-MLL FL inh = qHTS Assay for Inhibitors Targeting the Menin-MLL Interaction in MLL Related Leukemias: Competition With Fluorescein Labeled MLL-derived Peptide. Fluorescence polarization, fluorescein-MLL peptide displacement from menin. FP activity change, % at 61.4 µM. 290,000 tested, under 10 active. AID 1766, 2009; inconclusive = falling polarisation curve, or a change in total fluorescence; inactive = total fluorescence flat and polarisation flat or rising; no compound was filed as active; the % refers to the polarisation; negative = inhibition;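 also: % of control where 0% means no effect; inhibitors lower the polarisation; unlabelled MLL peptide was the positive control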
# Sfp inh = qHTS Assay for Inhibitors of Bacillus subtilis Sfp phosphopantetheinyl transferase (PPTase). 4'-phosphopantetheinyl transferase ffp (Bacillus subtilis), Q9F4F7. Biochemical Sfp PPTase activity, qHTS. 3.5% of 310,000 active. Potency, µM, for the others: max response, negative = inhibition, actives largely listed as inhibitors; active = well fitted inhibition curve with a large enough effect; inconclusive = small, poorly fitted or top-dose-only effect, or another doubt; inactive = no such curve, though single readings can be large or run the other way;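 also: the enzyme is Sfp with the accession as filed and its product quenches rhodamine fluorescence; potency is read from the fitted curve at half-maximal effect; 0% = enzyme reaction without inhibitor and -100% = no enzyme wells; top concentration of the series not given in the record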
#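 Compounds were incubated with enzyme (final 15 nM) for 15 min at room temperature before substrate addition started the reaction. Fluorescence at 525 nm excitation, 598 nm emission was recorded immediately and after 30 minutes.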
# TRPV1 PAM = HTS Assay for Compounds that Act as Potentiators of the Vanilloid Receptor 1. TRPV1-expressing cells, Fluo-8 calcium influx, capsaicin EC20 potentiation; host cell line not named in the record; control for the full effect not named in the record. potentiation, % at 8.33 µM. 0.02% of 320,000 active; active means potentiation above 80%; inconclusive means 30% to 80%; inactive means below 30%; also: 0% is about no effect
# Target sequence (Q8NER1 whole entry, looked up): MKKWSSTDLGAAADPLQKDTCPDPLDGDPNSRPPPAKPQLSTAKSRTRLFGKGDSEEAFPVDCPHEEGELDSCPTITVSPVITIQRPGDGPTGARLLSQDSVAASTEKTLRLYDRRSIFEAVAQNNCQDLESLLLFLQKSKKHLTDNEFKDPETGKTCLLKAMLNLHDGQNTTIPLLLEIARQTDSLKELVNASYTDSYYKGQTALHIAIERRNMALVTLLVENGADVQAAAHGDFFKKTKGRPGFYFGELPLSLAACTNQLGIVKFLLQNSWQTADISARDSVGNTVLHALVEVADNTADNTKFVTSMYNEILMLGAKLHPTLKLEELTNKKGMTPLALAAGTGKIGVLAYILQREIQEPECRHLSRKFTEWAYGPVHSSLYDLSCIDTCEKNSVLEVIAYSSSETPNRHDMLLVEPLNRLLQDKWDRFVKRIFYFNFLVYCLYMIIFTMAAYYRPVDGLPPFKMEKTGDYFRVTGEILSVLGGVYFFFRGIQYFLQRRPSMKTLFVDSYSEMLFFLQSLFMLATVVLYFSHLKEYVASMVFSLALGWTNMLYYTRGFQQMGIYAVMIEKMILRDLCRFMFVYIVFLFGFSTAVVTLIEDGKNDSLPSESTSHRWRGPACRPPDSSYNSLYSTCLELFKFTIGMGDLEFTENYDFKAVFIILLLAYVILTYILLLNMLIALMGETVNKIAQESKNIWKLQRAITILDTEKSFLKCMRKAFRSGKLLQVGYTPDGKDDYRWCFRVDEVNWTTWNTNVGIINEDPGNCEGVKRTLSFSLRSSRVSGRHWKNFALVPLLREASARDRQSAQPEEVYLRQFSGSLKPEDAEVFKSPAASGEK
#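 Fluo-8 calcium influx in TRPV1-expressing cells, kinetic read (ex 480/em 520 nm). Compound added and read 3 min for agonist activity, followed by capsaicin at EC20 final and 2 min further read for enhancement.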
# gsp agonist = qHTS for Agonist of gsp, the Etiologic Mutation Responsible for Fibrous Dysplasia/McCune-Albright Syndrome: qHTS; gsp mutant cells, cAMP HTRF, 30 min; control for the full effect not named in the record; Potency, µM (series often up to 76.9 µM), for the others: top-dose activation (cAMP increase), usual class: activators; 0.13% of 340,000 active; AID 624287, 2012; active = well fitted activation curve with a large enough effect; inconclusive = small, poorly fitted or top-dose-only effect, or another doubt; inactive = no such curve, though single readings can be large or run the other way; cell line not stated here;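 also: phosphodiesterase inhibitor Ro 20-1724 added with compounds to block cAMP breakdown; potency is read from the fitted curve at half-maximal effect; nearly all actives have a fitted effect of over 60% in size; about a fifth of the inactives were tested at one dose only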
#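 Cells in DMEM/10% FBS with G418 were pretreated with compounds in DMSO plus […] (300 uM stock) for 30 min at 37C. cAMP was measured by HTRF (cAMP-d2 plus anti-cAMP antibody-K) after 30 min at room temperature.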
# An asterisk follows results filed as active; ? = inconclusive; nt = not tested or not shown; & = joins results of further samples; [ ] = another dose, or the depositor's remark. Rows were taken by chance; 5.3% or so of the library scored in one or more.
# Each structure is followed by: ClpP mod, gsp antagonist, CtBP-E1A blk, Menin-MLL FL inh, Sfp inh, TRPV1 PAM, gsp agonist
COc1cc(-c2ccc(Nc3ccccc3C(=O)O)c(OC)c2)ccc1Nc1ccccc1C(=O)O
    nt, -10%, ?, 21, 50µM*, -5, -5%[15.4 µM]
CCn1c(=O)n(CC)c2cc(N)ccc21
    -15%, -8%, nt, -7.5, 6%, 1, -35%[inhibitor]
C/C(Cn1cnc([N+](=O)[O-])n1)=N\NC(=O)c1cccc(F)c1
    2.6%, 13%, -1, 1.0, 10%, -18, -15%
CCO/C=C1/C(=O)N(c2ccc(OC)cc2)C(=O)c2ccccc21
    3.8%, -3%, nt, 0.9, 16%, -3, 11%
NS(=O)(=O)c1cccc(C(=O)OCC(=O)NC2CCCc3ccccc32)c1 (stereo not given)
    1.1%, -1%, 8, nt, nt, nt, -52%
COc1cccc([C@H](O)Cn2cc(-c3ccc(CON=C(C)C)cc3)nn2)c1
    nt, nt, nt, 0.1[11.7 µM], 17%&3%, 13, nt
Cc1ccc(C(=O)Nc2ccc3c(c2)CCC3)cc1S(=O)(=O)N1CCOCC1
    nt, -9%, -7, 4.2, 13%, -4, -65%[inhibitor]
CCCCCc1ccc(-c2cn(CN3C(=O)c4ccccc4C3=O)nn2)cc1
    -6.4%&-0.3%, 3%, -15, ?, 24%, -5, nt
CCC(C)[C@H](NC(=O)N1CC(=O)Nc2ccccc21)C(=O)Nc1nccs1 (stereo not given in full)
    nt, 13%, -13, nt, 2%, 20, 3%
CC(C)CC(c1nnnn1CC1CCCO1)N1CCN(c2nc3ccccc3s2)CC1 (stereo not given)
    0.2%, -21%, 2, -7.0, 4%, -10, ?
Cc1oc2c(C)c3oc(=O)c(CCC(=O)NCCCN4CCOCC4)c(C)c3cc2c1C
    -16%, -1%, -8, 1.7, 7%, -1, nt
CCCc1nnc(NC(=O)CCC(=O)N2CCCCC2)s1
    -0.5%, 6%, nt, 4.4, 3%, 15, 0%
COc1ccccc1-n1c(=S)[nH]c2c(sc(=S)n2-c2ccccc2C)c1=O
    -2.8%, -3%, -6, 0.3, -12%, 3, -30%[inhibitor]
CCOC(=O)c1[nH]c2cc(OC)c(OC)cc2c1NC(=O)CN(C)C1CCCCC1
    ?, 8%, -30, 4.2, 1%, -11, 18%
COc1ccc([C@H]2CC(=O)C=C(c3cccc(F)c3OC)C2)cc1
    -1.9%, -10%, 10, nt, nt, -10, -1%

# 2 compounds drawn at random from the list so far:
# Each structure is followed by: ClpP mod, gsp antagonist, CtBP-E1A blk, Menin-MLL FL inh, Sfp inh, TRPV1 PAM, gsp agonist
C/C(Cn1cnc([N+](=O)[O-])n1)=N\NC(=O)c1cccc(F)c1
    2.6%, 13%, -1, 1.0, 10%, -18, -15%
COc1cccc([C@H](O)Cn2cc(-c3ccc(CON=C(C)C)cc3)nn2)c1
    nt, nt, nt, 0.1[11.7 µM], 17%&3%, 13, nt

# Continuation.
# Each structure is followed by: ClpP mod, gsp antagonist, CtBP-E1A blk, Menin-MLL FL inh, Sfp inh, TRPV1 PAM, gsp agonist
CC1CN=C(NC2CCCCC2C)S1 (stereo not given)
    -0.7%, 15%, 9, -1.1, 9%, ?, 13%
COc1cc(OC)c(S(=O)(=O)N2CCN(C(=O)c3ccccc3F)CC2)cc1NC(C)=O
    nt, 13%, 1, 0.5, -1%, 0, 6%[15.4 µM]
COc1ccc(N2C(=O)CCC(C(=O)O)C2c2ccccc2OC)cc1 (stereo not given)
    -0.1%, 5%, 0, -3.4, 6%, 22, 5%
CC(C)CCCC(C)NC(=O)c1cc(S(=O)(=O)N2CCCCC2)ccc1N1CCOCC1 (stereo not given)
    -0.7%, -18%, -1, nt, nt, -8, -51%[inhibitor]
CC(=O)c1ccc(N(CC(=O)NC2CCCC2)C(=O)c2ccc(C)s2)cc1
    nt, -2%, 7, nt, 5%, 20, 4%
CCc1c(C)c2ccc(OCC(=O)N(C)C)c(C)c2oc1=O
    40%, 7%, -7, 1.4, 3%, -4, 9%
Cc1ccccc1C(=O)N1CCN(c2ccc(NC(=O)c3ccco3)cc2)CC1
    nt, 2%, 1, -1.4, 3%, -5, 12%
COc1ccc(C(=O)N2CCN(c3ccc(NC(=O)c4ccco4)cc3)CC2)cc1
    1.2%, -20%, 5, 1.1, 7%, 5, 9%
CCC[C@H]1CN(c2ccc(Br)cc2)C(=O)[C@@H]1CC(=O)Nc1ccc(OC)cc1
    1.4%, nt, 3, nt, nt, nt, ?
O=[N+]([O-])c1ccc(S(=O)(=O)N/N=C/c2ccco2)cc1
    -1.2%, 20%, nt, -1.2, 17%, 3, -10%
CCCC(=O)Nc1c2c(nn1-c1cccc(C)c1C)CS(=O)(=O)C2
    1.3%, 4%, 5, 9.3, 16%, 13, 6%
CCCCn1c(N)c(N(CC(C)C)C(=O)c2ccc(S(=O)(=O)N(CC)c3ccccc3)cc2)c(=O)[nH]c1=O
    nt, -3%, 7, nt, nt, 2, -7%[15.4 µM]
CN(C)C(=O)CC12CC3CC(C1)CC(CC(=O)N(C)C)(C3)C2
    nt, 16%, 4, -0.6, 7%, -4, 0%[15.4 µM]
COCCn1nnnc1C(c1ccc(OC)cc1)N1CCN(c2ccccc2F)CC1 (stereo not given)
    -1.7%, -7%, 6, 0.1, -6%, -6, 4%
Cc1c(OC(C)C(=O)NC2CC(C)(C)NC(C)(C)C2)ccc2c3c(c(=O)oc12)CCC3 (stereo not given)
    3.4%, 4%, -22, 0.3, 9%, 2, ?
Cc1cccc(NC(=S)N(C)C)c1C
    nt, 1%, 8, 2.5, 4%, nt, 7%[15.4 µM]
Cc1ccc2ncnc(NCCCCCC(=O)O)c2c1
    nt, 4%, nt, -1.9, 36%[activator], -6, 23%[15.4 µM]
COC(=O)c1ccc(C23CC4(C2)[C@H](CN(Cc2ccc(-c5ccccc5)cc2)[C@@H]4c2ccccc2)C3c2ccc(C(F)(F)F)cc2)cc1 (stereo not given in full)
    -4.1%, 7%, 5, 0.2&8.8, 19%&2%, -35, nt
COCCn1c(SCC(=O)NCc2ccc3c(c2)OCO3)nnc1-c1c[nH]c2ccccc12
    0.0%, 1%, -10, -7.3, 1%, ?, -21%
CC(=O)c1c(C)[nH]c(C(=O)Nc2cccnc2)c1C
    -0.6%, -1%, 1, 1.1, 10%, -15, -7%
Cc1nn(C)c(C)c1S(=O)(=O)N1CCC(C(=O)NCC2COc3ccccc3O2)CC1 (stereo not given)
    2.3%, 3%, 4, 0.2, 8%, 6, -34%[inhibitor]
COc1c2n(C)ccc3c-2n(c(=O)c1=O)c1ccccc31
    3.8%, -4%, -9, nt, nt, 8, -59%[inhibitor]
C=CC(=O)Nc1ccc(Br)cc1
    16µM*, 3%, 8, 1.3, 6%, -5, 10%
COC(=O)c1ccc(C2Nc3cccc4cccc(c34)N2)cc1
    nt, 2%, 2, 1.2, ?, 19, 13%[15.4 µM]
S=C(NCCc1ccccc1)N1CCN(C(=S)NCCc2ccccc2)CC1
    -18%, 15%, 1, nt, nt, -3, -15%[15.4 µM]
O=c1cc(O)c2ccccc2n1Cc1ccccc1Cl
    -18%, 3%, 8, -7.9, 20%, 1, -28%
CCCn1c(N)c(Sc2ccccc2)c(=O)n(CCC)c1=O
    -0.4%, -4%, 6, 0.3, 25%, 0, 29%
CC1(C)CC(NC(=O)Cc2ccccc2)CC(C)(C)N1
    -3.9%, 11%, nt, -0.6, 10%, 1, -1%
CCCCCC(=O)N1CC2(C)CN(C(=O)CCCCC)CC(C)(C1)C2=O
    -0.7%, 2%, 8, -0.6, 15%, 1, ?
CN(c1ccccc1)S(=O)(=O)c1ccc(NC(=O)c2ccccc2)cc1
    -4.2%, -20%, 6, 5.0, 9%, -20, -5%

# Full records as entered above:
# CCCn1c(N)c(Sc2ccccc2)c(=O)n(CCC)c1=O is listed with ClpP mod = -0.4%; gsp antagonist = -4%; CtBP-E1A blk = 6; Menin-MLL FL inh = 0.3; Sfp inh = 25%; TRPV1 PAM = 0; gsp agonist = 29%
# S=C(NCCc1ccccc1)N1CCN(C(=S)NCCc2ccccc2)CC1 is listed with ClpP mod = -18%; gsp antagonist = 15%; CtBP-E1A blk = 1; Menin-MLL FL inh = nt; Sfp inh = nt; TRPV1 PAM = -3; gsp agonist = -15%[15.4 µM]

# New compounds follow
# Each structure is followed by: ClpP mod, gsp antagonist, CtBP-E1A blk, Menin-MLL FL inh, Sfp inh, TRPV1 PAM, gsp agonist
C[C@@H]1CN([C@@H](C)CO)C(=O)c2cc(NC(=O)c3ccncc3)ccc2O[C@@H](C)CCCCO[C@@H]1CN(C)C(=O)Cc1ccccc1
    0.4%, nt, 7, nt, nt, nt, 0%
COc1ccc(CCNC(=O)c2nc3ncccn3n2)cc1OC
    1.4%, 10%, 6, -0.8, 10%, -6, ?
CC(=O)Nc1ccc(NC(=O)C2CCCN(c3nnc(-n4cccc4)s3)C2)cc1 (stereo not given)
    1.2%, 8%, -13, 18, -18%, -4, ?
COc1ccc(CCNC(=O)c2ccc3c(c2)SC2=NS(=O)(=O)CCN23)cc1
    nt, 7%, 0, 2.4, 2%, 1, -20%[15.4 µM]
CC1(C)CC2CC(C)(CN2S(=O)(=O)c2ccc(C(=O)Nc3ccc(Cl)c(S(=O)(=O)N4CCOCC4)c3)cc2)C1 (stereo not given)
    ?, 5%, 24, -0.1, 22%, 21, -36%[inhibitor]
Cc1nn(-c2ccccc2)c(C)c1C(=O)N1CCN(S(=O)(=O)c2ccccc2)CC1
    -2.7%, -11%, -4, nt, nt, 17, 2%
CN(C(=O)c1ccc(NC(=O)Cc2ccc(NC(=O)C3CCN(C(=O)C4CCCCC4)CC3)cc2)cc1)C1CCCC1
    1.6%, 5%, 2, nt, nt, nt, nt
